Source: PubChem BioAssay
Hedgehog cleavage: Hh protein inhibition, biochemical readout – plate reader, single concentration, primary screen (AID 588832); Biochemical plate reader assay, Hedgehog inhibition; hits give high values; inhibition, % at 30.3 µM; 8,000 tested, under 10 active; in the data active means inhibition from about 57%;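 further: 0% = neutral control wells and 100% = positive control wells; cholesterol-driven self-cleavage of fly hedgehog protein by fluorescence polarization; read one hour after cholesterol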
Numbers without * were called inactive. This is a subset, so the mix of outcomes need not match the whole.

Hedgehog cleavage	Molecule
21	O=C1CC(c2ccc(S(=O)(=O)NCc3ccccc3)cc2)CN1 (stereo not drawn)
4	CCCc1cc(C(=O)Nc2cc(Br)ccc2O)no1
5	COc1ccccc1N1CSC2=C(C#N)C(c3ccc(SC)cc3)CC(=O)N2C1 (stereo not drawn)
5	Cn1cc(SCC(=O)Nc2ccc3c(c2)OCO3)c2ccccc21
5	COC(=O)c1cc(=O)n(Cc2ccc3c(c2)OCO3)c(=Nc2ccc(F)cc2)s1
21	CCOc1ccc(Cn2nnc(C(=O)NCc3ccc(OC)cc3)c2N)cc1
5	CC1Cc2nc(SCC(=O)OCc3ccccc3)n(C)c(=O)c2S1 (stereo not drawn)
7	COc1ccccc1CNC(=O)CCCn1nc(C)n2ccnc2c1=O
7	COc1cccc(NS(=O)(=O)c2ccc3c(c2)NC(=O)C(C)C(=O)N3)c1 (stereo not drawn)
21	COc1cc(NC(=O)c2cc3c(=O)n(C)c4ccccc4c3n2C)cc(OC)c1OC
-2	CSC1=NCCN1C(=O)c1ccc(S(=O)(=O)N2CCCC2)cc1
15	Cc1ccc(C(=O)N2NC(c3ccc(F)cc3)C3C(=O)N(c4ccc(C)cc4)C(=O)C32)cc1 (stereo not drawn)
8	Cc1ccc(S(=O)(=O)Nc2ccccc2C(=O)Nc2sccc2C(=O)NN(C)C)cc1
9	COc1ccc(-c2nc3n(n2)C(c2ccccc2Cl)C(C(N)=O)=C(C)N3)cc1 (stereo not drawn)
20	CCOC(=O)c1[nH]c2c(c1-c1ccccc1)C(=O)CC(c1ccc(OC)c(OC)c1)C2 (stereo not drawn)
5	COc1ccc(CNC(=O)[C@H](C)NC(=O)C2CCN(C(=O)[C@@H](N)CCSC)CC2)cc1
4	O=C(NCCc1ccccc1)c1cc(-c2ccccc2)c(N2CCOCC2)s1
2	CC(/C=C/C1[C@H](C)C[C@H](O[C@@H]2O[C@H](CO)[C@@H](O)[C@H](O)[C@H]2O)CC1(C)C)O[C@H]1O[C@H](CO)[C@@H](O)[C@H](O)[C@H]1O (stereo partly drawn)
10	Cc1cccn2cc(-c3ccc(NC(=O)Cc4ccccc4)cc3)nc12
20	CN(C)S(=O)(=O)c1ccc(NC(=O)C2COc3ccccc3O2)cc1 (stereo not drawn)
5	CSc1ccccc1NC(=O)c1cc(CC(C)C)on1
11	Cc1ccc(CCNS(=O)(=O)c2cc3c(cc2C)n(C)c(=O)c(=O)n3C)cc1
17	Cc1cc(Nc2cccc(F)c2)n2ncnc2n1
5	CCCCCn1c(CN2CCN(C)CC2)nc2c1c(=O)n(C)c(=O)n2C
0	CC(NC(=O)Cn1cc2c(n1)CCCCC2)c1ccccc1 (stereo not drawn)
5	O=C(Nc1nc2cc3c(cc2s1)OCO3)C1=COCCO1
4	CC(=O)NC(CCS(C)(=O)=O)C(=O)Nc1cccc(C)c1C (stereo not drawn)
10	COc1ccc(CCNC(=O)CCn2c(=O)oc3ccccc32)cc1OC
7	COc1ccc(NC(=O)c2cc(S(=O)(=O)N3CCc4ccccc43)cn2C)cc1OC
10	CC1CC(NC(=O)c2cnc3n(c2=O)CCS3)CC(C)(C)C1 (stereo not drawn)

Some of these compounds in order of molecular weight, high to low:
Hedgehog cleavage	Molecule
5	CCCCCn1c(CN2CCN(C)CC2)nc2c1c(=O)n(C)c(=O)n2C
10	CC1CC(NC(=O)c2cnc3n(c2=O)CCS3)CC(C)(C)C1 (stereo not drawn)
0	CC(NC(=O)Cn1cc2c(n1)CCCCC2)c1ccccc1 (stereo not drawn)

Following part
Hedgehog cleavage	Molecule
2	O=C(Cn1ncc2c1-c1ccccc1OC2)N1CCc2ccccc21
1	O=C(c1cc2c(s1)-c1ccccc1OC2)N1CCCC1
10	Cn1c(Cn2c(=O)sc3ccccc32)nnc1SCC(=O)NCc1ccccc1
17	Cc1cc(NC(=O)c2cccc(S(=O)(=O)N3CC(c4ccccc4)CC3=O)c2)no1 (stereo not drawn)
9	CCc1ccc(C2CC(c3cccc(Cl)c3)n3nc(N)nc3N2)cc1 (stereo not drawn)
4	CCC(C)[C@H](NS(=O)(=O)c1ccc(C)cc1)C(=O)N1CCC(C(=O)N2CCC(C(N)=O)CC2)CC1 (stereo partly drawn)
-2	O=C(c1ccccc1)C(O)c1ccccc1 (stereo not drawn)
3	CCc1cc(=O)oc2cc(C)cc(OCC(=O)NC(Cc3ccc(Cl)cc3)C(=O)O)c12 (stereo not drawn)
9	Cc1cc(N=O)c(C)cc1O
5	CCCCOC(=O)c1cc(=O)[nH]c(=O)[nH]1
0	COc1ccc(CCc2nc(-c3ccc(-n4cccc4)cc3)no2)cc1
20	CCOc1ccc(C2N(c3ccc(Cl)cc3)C(=O)C3CCCN32)cc1OC (stereo not drawn)
12	Cc1cccc(-c2nnc(NC(=O)c3cccs3)s2)c1
0	Cc1ccccc1-n1c(Cn2c(=O)sc3ccccc32)nnc1SCC(=O)NCC1CCCO1 (stereo not drawn)
9	CC(C)N(Cc1nc(-c2ccccc2)no1)C(=O)Cc1ccccc1
4	CCOc1ccc(-c2nc(CSCC(=O)N3CCN(c4cccc(OC)c4)CC3)c(C)o2)cc1
8	O=C(NCCc1ccccc1)c1nnc(CS(=O)(=O)c2ccccc2)o1
11	COC(=O)c1cc(O)cc(OC)c1C(=O)c1c(O)cc(C)cc1O
5	O=C(Nc1nnc(S(=O)(=O)N2CCOCC2)s1)c1ccccc1
4	CC(C)c1ccc(N(CC(=O)O)S(=O)(=O)c2cccnc2)cc1
70*	O=C1C=CC2=C3c4cc(O)c(O)cc4CC3(O)COC2=C1O (stereo not drawn)
0	COc1ccc(N(C(=O)c2cccnc2)S(=O)(=O)c2ccc(Cl)cc2)cc1
5	COc1ccc(OC)c(/C=C2\Oc3cc(OCC(=O)N4CCC[C@H]4C(=O)O)ccc3C2=O)c1
5	C/C=C(/C)C(=O)OC1Cc2c(ccc3ccc(=O)oc23)OC1(C)C (stereo not drawn)
0	COCCn1c(CN2CC(C)CC(C)C2)nc2c1c(=O)n(C)c(=O)n2C (stereo not drawn)
4	CC(C)CCNC(=O)c1cc(S(=O)(=O)N2CCc3ccccc32)cn1C
2	Cn1c(=O)[nH]c(=O)c2c1nc(N1CCN(Cc3ccccc3)CC1)n2CCSc1ncccn1
6	CC1Cc2nc(SCC(=O)Nc3ccc4c(c3)OCO4)n(CCc3ccccc3)c(=O)c2S1 (stereo not drawn)
9	COc1ccc(S(=O)(=O)N2CCN(C(=O)c3cc(-c4ccccc4OC)n[nH]3)CC2)cc1
0	CCn1cc(C(=O)NCC2CCCO2)c(=O)c2cc(S(=O)(=O)N(C)C)ccc21 (stereo not drawn)
5	COc1ccc(N2CSC3=C(C#N)C(c4ccc(OC)c(OC)c4)CC(=O)N3C2)c(OC)c1 (stereo not drawn)
11	COc1cccc(-n2c(Cc3cc(=O)[nH]c(=O)[nH]3)nnc2SCC(=O)NC2CCCCC2)c1
2	CCOC(=O)N1CCC(NC(=O)c2ccc(CS(=O)(=O)c3ccccc3C)o2)CC1
5	COc1ccc(C(c2sc3nc(C)nn3c2O)N2CC(C)OC(C)C2)cc1OC (stereo not drawn)
10	CC(C)c1nnc(NC(=O)C2CCCCC2)s1
7	COc1cc(OC)c(C(=O)/C=C/c2ccccc2)c(O)c1O
0	CC1(C)CC(=O)N(CC(=O)N2CCN(c3ncccn3)CC2)c2ccccc2S1(=O)=O
7	COc1ccc(OC)c(-n2c(SCC(N)=O)nnc2-c2c[nH]c3ccccc23)c1
4	Cc1ccc(C(=O)NCCSc2c(C)[nH]c3ccccc23)cc1[N+](=O)[O-]
-8	O=C(NCc1ccc2c(c1)OCO2)c1ccc(CS(=O)(=O)c2ccc(Br)cc2)o1
7	CCc1ccccc1NC(=O)C1CCN(C(=O)N2CCOc3ccccc32)CC1
-2	Cc1ccc(NS(=O)(=O)c2cc3c(cc2C)NC(=O)CO3)cc1
6	O=C(NCc1ccc2c(c1)OCO2)C1CCCN(S(=O)(=O)c2cccnc2)C1 (stereo not drawn)
2	CSc1ccc(C=O)cc1
13	COc1cccc(C2CC(c3ccccc3)Nc3nc(N)nn32)c1 (stereo not drawn)
3	CCCCCn1c(SCC(=O)OC)nc2c1c(=O)[nH]c(=O)n2C
10	COc1cc(C2OC(c3cc(OC)c(OC)c(OC)c3)C(C)C2C)cc(OC)c1OC (stereo not drawn)
12	Cn1cccc1Cc1nnc(SCC(=O)NC2CCCCC2)n1CCc1ccccc1
6	O=C(Cn1nc(Cc2ccncc2)c2ccccc2c1=O)N1CCN(C(=O)c2ccco2)CC1
10	O=C1c2c(O)cc(O)cc2O[C@H](c2ccc(O)cc2)[C@H]1O

Part of the list above, with tabs:
mol	Hedgehog cleavage
O=C1CC(c2ccc(S(=O)(=O)NCc3ccccc3)cc2)CN1 (stereo not drawn)	21
CCCc1cc(C(=O)Nc2cc(Br)ccc2O)no1	4
COc1ccccc1N1CSC2=C(C#N)C(c3ccc(SC)cc3)CC(=O)N2C1 (stereo not drawn)	5
Cn1cc(SCC(=O)Nc2ccc3c(c2)OCO3)c2ccccc21	5
COC(=O)c1cc(=O)n(Cc2ccc3c(c2)OCO3)c(=Nc2ccc(F)cc2)s1	5
CCOc1ccc(Cn2nnc(C(=O)NCc3ccc(OC)cc3)c2N)cc1	21
CC1Cc2nc(SCC(=O)OCc3ccccc3)n(C)c(=O)c2S1 (stereo not drawn)	5
COc1ccccc1CNC(=O)CCCn1nc(C)n2ccnc2c1=O	7
COc1cccc(NS(=O)(=O)c2ccc3c(c2)NC(=O)C(C)C(=O)N3)c1 (stereo not drawn)	7
COc1cc(NC(=O)c2cc3c(=O)n(C)c4ccccc4c3n2C)cc(OC)c1OC	21
CSC1=NCCN1C(=O)c1ccc(S(=O)(=O)N2CCCC2)cc1	-2
Cc1ccc(C(=O)N2NC(c3ccc(F)cc3)C3C(=O)N(c4ccc(C)cc4)C(=O)C32)cc1 (stereo not drawn)	15
Cc1ccc(S(=O)(=O)Nc2ccccc2C(=O)Nc2sccc2C(=O)NN(C)C)cc1	8
COc1ccc(-c2nc3n(n2)C(c2ccccc2Cl)C(C(N)=O)=C(C)N3)cc1 (stereo not drawn)	9
CCOC(=O)c1[nH]c2c(c1-c1ccccc1)C(=O)CC(c1ccc(OC)c(OC)c1)C2 (stereo not drawn)	20

(list continues)
Hedgehog cleavage	Molecule
3	Cc1ccc2c(c1)N(C(=O)CCC(=O)NCc1ccccn1)CC(C)O2 (stereo not drawn)
15	C=CCN(C(=O)Cn1ncc2c1-c1cc(C)ccc1OC2)c1ccccc1
7	CC(C)N(Cc1nc2ccccc2[nH]1)C(C)C
13	CCOC(=O)C1C(=O)Oc2ccc3ccccc3c2C1C1CCOC1=O (stereo not drawn)
-6	CCOC(=O)N1CCC(NC(=O)CS(=O)(=O)Cc2nc(-c3ccccc3C)oc2C)CC1
11	Cc1ccc(NC(=O)CC2Oc3ccc(C)cc3NC2=O)cc1 (stereo not drawn)
7	Cc1noc(/C=C/N(C)C)c1S(=O)(=O)N1CCCC(C(=O)NC2CCCCC2)C1 (stereo not drawn)
7	CCOCCCN(Cc1ccco1)C(=O)c1cc2c(=O)[nH]c3ccc(C)cc3c2s1
9	O=Cc1ccc(C(=O)O)cc1
2	Brc1ccc(-c2ccccc2)cc1
5	CCn1cc(SCC(=O)Nc2cc(C)on2)c2ccccc21
9	CC1(C)CCc2c([nH]c3ccccc3c2=O)O1
58*	CC(=O)Oc1cc2cccc(OC(C)=O)c(=O)c2c(OC(C)=O)c1OC(C)=O
10	O=C(Cn1cc2c(n1)CCCC2)NCCCN1CCN(C2CCCCC2)CC1
9	O=C1CC(c2ccccc2)Oc2cc(O)cc(O)c21 (stereo not drawn)
4	CCCc1nc(SCC(=O)N2CCN(c3ccccc3)CC2)c2c(=O)n(C)c(=O)n(C)c2n1
4	c1ccc2c(c1)Oc1ccccc1S2
4	Cn1c(C(=O)NC2CCCC2)cc2c(=O)n(C)c3ccccc3c21
5	Cc1ccc(CNC(=O)c2cc3c(C)nc4ccccc4c3o2)cc1
11	Cn1c(C(=O)NCCN2CCN(Cc3ccccc3)CC2)cc2c(=O)n(C)c3ccccc3c21
4	CCCSCCCNC(=O)Cn1cc2c(n1)CCCCC2
12	Cn1c(C(=O)NC2CCCCCC2)cc2c(=O)n(C)c3ccccc3c21
2	C=CCSc1nnc(-c2c[nH]c3ccccc23)n1CC
5	Cc1nc2sccn2c(=O)c1S(=O)(=O)Nc1ccc(N2CCOCC2)cc1
-4	CN1CCSc2ccc(C(=O)NCc3ccccc3F)cc21
2	C/C(CC(=O)Nc1c(Cl)cccc1C(F)(F)F)=N\NC(=O)c1cnccn1
5	COc1ccc(S(=O)(=O)NCc2csc(-c3cccnc3)n2)cc1
7	O=C(Oc1cc(=O)oc2ccccc12)c1ccccc1
0	CCc1c(C)c2ccc(OCC(=O)NCC3CCC(C(=O)O)CC3)cc2oc1=O (stereo not drawn)
5	CC(=O)c1ccccn1
13	Cc1cc(=O)oc2cc(OC(C)C(=O)NCC3CCC(C(=O)O)CC3)ccc12 (stereo not drawn)
3	CCCCn1c(=O)cc(N2CCOCC2)[nH]c1=O
5	COc1ccc(/C=C\C(=O)NCc2ccc3[nH]c(C)cc3c2)cc1OC
8	CCCn1cc(SCC(=O)NCC2CCCO2)c2ccccc21 (stereo not drawn)
15	O=C(c1ccc(Br)cc1)N1CCN(S(=O)(=O)c2ccccc2)CC1
4	CCOC(=O)C1C2C=CC3(CN(c4cccc(Cl)c4)C(=O)C13)O2 (stereo not drawn)
11	CN(Cc1ccccc1)C(=O)CCS(=O)(=O)c1cc2c(cc1Cl)NC(=O)CO2
0	Cc1ccc(C(=O)Nc2nnc(S(=O)(=O)Nc3ccccc3C)s2)cc1C
8	CC(NC(=O)NC1CCCCC1)C(c1cccs1)N1CCOCC1 (stereo not drawn)
-8	O=c1cc(N2CCN(c3ccc(F)cc3)CC2)[nH]c(=O)n1Cc1ccc(F)cc1
25	COC(=O)CC1Oc2ccccc2N(Cc2ccccc2)C1=O (stereo not drawn)
17	COc1ccc(C2CC(c3ccc(Cl)cc3)n3nc(N)nc3N2)cc1 (stereo not drawn)
7	Cc1cc(C)c2sc(NNC(=O)c3ccc(S(=O)(=O)N4CCc5ccccc5C4)cc3)nc2c1
6	CC1CCCC(C)N1C(=O)Cn1c(=O)sc2ccccc21 (stereo not drawn)
5	Cc1c(S(=O)(=O)Nc2cc(Cl)ccc2Cl)c(=O)n(C)c(=O)n1C
5	N#C[C@H]1C(O)C(O)c2ccccc2N1C(=O)c1ccccc1 (stereo partly drawn)
24	CCn1cc(S(=O)(=O)CC(=O)Nc2ccc3c(c2)OCO3)c2ccccc21
